H5N1 antiviral = MDCK cell protection from H5N1 avian flu; cytopathic effect, luminescence, 72 h; active compounds read high; no value below 0 was filed and about half of the inactive calls have no number; reference of the scale not given here; inhibition, % at 50 µM; 96,000 tested, 0.07% active; in the data active means inhibition above about 25%
Numbers without * were called inactive; i = inactive.

SMILES	H5N1 antiviral
CCCCC(=O)NC1(C(F)(F)F)C(=O)N(CC(C)C)C2=C1C(=O)CC(C)(C)C2 (stereo unspecified)	i
CCn1cc(C(=O)N2CCCc3ccccc32)c2cc(OC)c(OC)cc2c1=O	0.6
COC(=O)c1cc(Br)c(=O)n(CCN2CCOCC2)c1	1.1
Cc1cc(C)n(C(=O)CCN2C(=O)c3ccccc3C2=O)n1	0.9
O=C(CCS(=O)(=O)c1ccc(Br)s1)NCc1ccc2c(c1)OCO2	i
COc1cc(NC(=O)c2ccc(COc3ccccc3Br)o2)cc(OC)c1OC	i
Cc1ccc2nc(SCC(=O)NC(=O)NCc3ccco3)[nH]c2c1	0.2
COc1ccc(NC(=O)C(C)N2c3cccc4cccc(c34)S2(=O)=O)cc1 (stereo unspecified)	i
CC1CCCC(C)N1C(=O)CSc1nnc(-c2cccs2)o1 (stereo unspecified)	1.2
Cc1ccccc1N(CC(=O)N/N=C/c1cc(C)n(-c2ccccc2C)c1C)S(C)(=O)=O	1.4
O=[N+]([O-])c1ccc2c(c1Nc1ccccc1)=NC1(CCCCC1)N=2	i
CCC(=O)N/N=C(\C)CC(=O)Nc1ccc2ccccc2c1	i
Cc1ccc(S(=O)(=O)N2CC3(C)CN(S(=O)(=O)c4ccc(C)cc4)CC(C)(C2)C3O)cc1 (stereo unspecified)	i
CC1=CC(C)(C)N(C(=O)C(C)N2C(=O)c3ccccc3C2=O)c2ccc(C)cc21 (stereo unspecified)	1.4
O=C(N/N=C/c1ccc([N+](=O)[O-])s1)c1ccccc1Br	0.4
CCCCNC(=O)C1CCCN(S(=O)(=O)c2ccc(S(=O)(=O)NCC(C)C)cc2)C1 (stereo unspecified)	0.7
O=C(Cn1ncc2c(=O)oc3ccccc3c21)NC1CC1	i
CCOC(=O)Cc1csc(NC(=O)CSc2nc(C)cc(=O)[nH]2)n1	i
CCOc1ccccc1NC(=O)Cc1ccccc1OC	0.4
Cc1nc2cc(-c3ccsc3-n3c(C)ccc3C)[nH]n2c(=O)c1Cl	0.9
CCOc1cc(C#N)c(NC(=O)c2cccnc2Cl)cc1OCC	0.1
Cc1ccc(-c2nn3c(C)nnc3s2)cc1NC(=O)CSc1ccc(Cl)cc1	0.1
CCCn1c(CCc2ccccc2)nnc1SCC(=O)N1CCCC1	0.6
COC(=O)C1CCN(C(=O)/C=C/c2ccc(OC)cc2)CC1	i
CCOC(=O)c1ccc(-c2nnc(-c3ccc(Cl)cc3Cl)o2)cc1	i
COc1cccc(NC(=O)CNS(=O)(=O)c2ccc3nc(C)sc3c2)c1	0.2
O=C(c1ccc(CN2CCc3ccccc3C2)cc1)N1CCCCC1	1.2
CC1=C(C(=O)c2ccccc2)C(c2cn(-c3ccccc3)nc2-c2ccc(Cl)cc2)NC(=S)N1 (stereo unspecified)	i
COc1ccc(C(=O)Nc2cc3c(cc2C#N)OCO3)cc1S(=O)(=O)NCc1ccco1	2.7
COc1ccc(C2CN=NC23CCCc2ccccc2C3=O)cc1 (stereo unspecified)	1.0
O=C(NCc1cccs1)c1cc2ccccc2o1	i
O=C(NCCN1CCCCC1)Nc1ccccc1	i
COc1ccc(C(=O)C[n+]2ccc3c(c2)nc(-c2cc(OC)c(OC)cc2OC)n3C)cc1	i
COc1ccc(NS(=O)(=O)c2ccc(NS(=O)(=O)c3ccc(C)cc3)cc2)nn1	1.6
CC1=CC(C)(C)Nc2ccc(OC(=O)CN3C(=O)C4CCCCC4C3=O)cc21 (stereo unspecified)	0.1
c1ccc2oc(-c3ccc(Nc4nc(N5CCCCC5)nc(N5CCOCC5)n4)cc3)nc2c1	i
Cc1noc(/C=C/N(C)C)c1S(=O)(=O)N(C)CC(=O)NC1CCCCC1	i
CCOc1ccc(C(=O)Nc2nnn(CC)n2)cc1	i
CCC(C)NC(=O)CCS(=O)(=O)c1ccc2c(c1)n(C)c(=O)c(=O)n2C (stereo unspecified)	3.0
CC(=O)C1=C(NC(=O)c2ccccc2F)C[C@@H]2[C@H]1C2(C)C	i
COc1ccc(-n2nc3c(c2NC(=O)Cc2cccc(C)c2)CS(=O)C3)cc1 (stereo unspecified)	i
O=C(Nc1ccc2c(c1)CCC2)c1cccc(S(=O)(=O)N2CCN(c3ccc(F)cc3)CC2)c1	0.2
CCCNC(=O)Cc1ncn[nH]1	i
COc1ccc(N2C(=O)CC(n3cnc4ccccc43)C2=O)cc1 (stereo unspecified)	0.1
Cc1ccc(Oc2c(C=O)c3ccccc3n2C)cc1	i
CC(=O)N1CCCc2cc(S(=O)(=O)N3CCN(c4ccccn4)CC3)ccc21	1.9
Cc1sc(CO)c(Sc2ccccc2)c1C(=O)O	0.4
CCN=C1SC(C(=O)Nc2cccc(C(=O)O)c2)CC(=O)N1CC (stereo unspecified)	i
O=C1NCC(CN(c2ccccc2)c2ccccc2)O1 (stereo unspecified)	1.5
Cc1ccc(-c2nnc(N3CCN(C(=O)Cn4c(=O)n(C)c5ccccc54)CC3)c3ccccc23)cc1	i
COc1ccc(C(=O)CSc2nnc(Cn3nnc4ccccc43)n2C)cc1	0.6
CCOC(=O)c1ccccc1NC(=O)Cn1cnc2c1c(=O)n(C)c(=O)n2C	0.9
O=C(Cn1cnc2c(nnn2Cc2ccc(F)cc2)c1=O)N1CCN(c2ccccc2)CC1	i
O=C(CNC1CCCCCC1)Nc1ccc(N2CCCC2)cc1	i
CC(=O)Nc1cc(-c2ccccc2)nn1Cc1ccc(Cl)cc1	0.8
COC(=O)c1ccc(NC2CC(=O)N(c3ccccc3C)C2=O)cc1 (stereo unspecified)	i
CSc1nnc2c(n1)[nH]c1c(C)cccc12	0.4
CCCCn1cnc2sc3c(c2c1=N)CCCC3	0.4
CC(C)NS(=O)(=O)c1ccc(NC(=S)NC(=O)c2ccc(-c3ccccc3)cc2)cc1	i
CCOC(=O)C1=C(N)Oc2cc(C)oc(=O)c2C12C(=O)N1c3c(cccc32)C(C)=CC1(C)C (stereo unspecified)	0.7

(continued)
SMILES	H5N1 antiviral
COc1c2c(nc3ccccc13)OC(C(C)(O)CO)C2 (stereo unspecified)	i
CCOC(=O)c1c(C)n(CCN2CCN(C)CC2)c2ccc(OC)cc12	1.1
CCOC(=O)C(CC)n1nc(C)n2c(cc3occc32)c1=O (stereo unspecified)	0.2
S=c1[nH]c2ncccc2o1	1.1
Clc1ccc(-c2cn3c(n2)CCC3)cc1	i
CCCCCOc1ccc(NC(=O)C(=O)NCCC2=CCCCC2)cc1	i
COc1ccccc1CNS(=O)(=O)c1cccc(S(=O)(=O)N2CCOCC2)c1	0.3
COc1cccc(C2c3c(oc4ccc(Cl)cc4c3=O)C(=O)N2c2cc(C)on2)c1OC (stereo unspecified)	i
COc1ccccc1CN(Cc1cc2cc(C)cc(C)c2[nH]c1=O)Cc1nnnn1CC1CCCO1 (stereo unspecified)	0.7
O=C1CCCCCN1CP(=O)(O)CCc1ccccc1	0.9
O=C(CSc1ncccn1)Nc1ccc(S(=O)(=O)N2CCCCC2)cc1	1.2
O=C1OCc2ccc(NC(=O)C3CCCCC3)cc21	0.1
O=C(NC(Cc1ccccc1)C(=O)O)c1ccccc1 (stereo unspecified)	0.7
CN1CCc2c(sc3c2C(=O)NC(c2ccccn2)N3)C1 (stereo unspecified)	0.2
CCCCCCC(=O)N/N=C/Cc1ccccc1	i
O=C(CN1CCOCC1)NC1CC2CCC1C2 (stereo unspecified)	0.3
CCCCOc1c(Br)cc(/C=C2\N=C(C)OC2=O)cc1OCC	i
CCC1Oc2ccccc2N(CC(=O)NCCC2=CCCCC2)C1=O (stereo unspecified)	4.1
COC(=O)[C@H](Cc1ccccc1)NC(=O)NCC1CCCO1 (stereo partly specified)	i
Cc1c(NC(=O)C(Sc2ccccc2)c2ccccc2)cccc1[N+](=O)[O-] (stereo unspecified)	i
CC(=O)Nc1ccc(S(=O)(=O)N2CCC(c3nc4ccccc4[nH]3)CC2)cc1	0.9
COC(=O)c1cc2n(n1)CCN(Cc1ccc(C)cc1)C2=O	0.7
CCC(=O)Nc1ccc(-c2nnc(SCC(=O)Nc3nccs3)n2C)cc1	0.1
CC(=O)Nc1ccc(N2C(=O)CSC2c2c(F)cccc2Cl)cc1 (stereo unspecified)	i
CCN(CC)CCn1c(NCc2ccccn2)nc2ccccc21	1.0
COc1cc(NC(=O)Nc2ccccc2)c(OC)cc1NC(=O)CN1CCCCC1	i
COc1ccccc1Nc1nc(C)cc(=O)[nH]1	i
COC(F)(C(=O)Nc1ccc2c(c1)C(=O)NC2=O)C(F)(F)F (stereo unspecified)	1.2
Cc1ccc(-c2cnn(-c3cccc([N+](=O)[O-])c3)c2N)cc1	i
Cc1ccc(/C(O)=C2/C(=O)C(=O)OC2c2ccc(Cl)cc2)cc1 (stereo unspecified)	i
O=C(C1=C(O)C(=O)N(c2ncccn2)C1c1cccs1)c1ccco1 (stereo unspecified)	0.6
COc1ccc(CNC(=O)Cn2nc(-c3ccc4c(c3)OCCO4)ccc2=O)cc1	0.6
Cc1cc(C(=O)COc2nncc3ccccc23)c(C)n1C	0.0
COc1ccc2c(CC(=O)NCc3ccc4c(c3)OCO4)coc2c1	0.9
Cc1ccc(NC(=S)NNC(=O)c2nn(C)c(C)c2Cl)cc1	1.0
CCOC(=O)N1CCC(N(C(=O)Nc2ccc(CC)cc2)C(C)CC)CC1 (stereo unspecified)	i
CCCCSc1nnc(-c2ccc(C)cc2)o1	i
CC(=O)c1ccc(Cc2cnc(N)s2)cc1	i
O=C(O)C1CC=CCC1C(=O)Nc1ccccc1Cl (stereo unspecified)	i
COc1ccccc1NC(=O)C1CCCN1C(=O)NCc1ccccc1 (stereo unspecified)	0.1
Cc1cc(C)n(-c2nc(NCC(C)O)c3c4c(sc3n2)COC(C)(C)C4)n1 (stereo unspecified)	1.4
CCOC(NC(=O)c1ccccc1)C(NC(=O)c1ccccc1)OCC (stereo unspecified)	0.7
O=C(CCc1nc2ccccc2s1)N1CCN(S(=O)(=O)c2cccs2)CC1	1.1
CCN(CC)S(=O)(=O)c1cccc(-c2nnc(SC(C)C(N)=O)n2CCc2ccccc2)c1 (stereo unspecified)	2.3
O=C(Nc1ccccc1)c1cc2c(=O)c3ccccc3oc2nc1C(F)(F)F	0.2
CN=C(Nc1ccccc1)SC1CC(=O)N(c2ccc(C(=O)OC)cc2)C1=O (stereo unspecified)	2.6
CCC(C)(C(=O)NC1CCCCC1)N(Cc1ccco1)C(=O)CC1NC(=O)NC1=O (stereo unspecified)	0.2
Cc1ccc(N2C(N)=C(C#N)C(c3cccnc3)C3=C2CC(C)(C)CC3=O)cc1 (stereo unspecified)	0.2

Molecules above that have a CF3 group:
SMILES	H5N1 antiviral
CCCCC(=O)NC1(C(F)(F)F)C(=O)N(CC(C)C)C2=C1C(=O)CC(C)(C)C2 (stereo unspecified)	i
COC(F)(C(=O)Nc1ccc2c(c1)C(=O)NC2=O)C(F)(F)F (stereo unspecified)	1.2
O=C(Nc1ccccc1)c1cc2c(=O)c3ccccc3oc2nc1C(F)(F)F	0.2

The listing continues:
SMILES	H5N1 antiviral
c1ccc2[nH]c(SCc3cscn3)nc2c1	0.1
CCC1CCCCN1CCCNC(=O)CNC(=O)Cn1ccc2ccccc2c1=O (stereo unspecified)	0.6
Cc1c(N2C(=O)/C(=C\c3cccc4ccccc34)SC2=S)c(=O)n(-c2ccccc2)n1C	i
CCOc1cc(C2C(C(=O)N3CCOCC3)=C(C)NC3=C2C(=O)CCC3)ccc1O (stereo unspecified)	i
CC(C)Oc1cccc(-c2cc(C(=O)N3CCN(c4ncccn4)CC3)c3ccccc3n2)c1	i
Cc1ccc(S(=O)(=O)Nc2ccc(S(=O)(=O)N3CCCC3)cc2)cc1	2.7
CCC1CCCCN1C(=O)COC(=O)c1ccc(S(=O)(=O)N2CCOCC2)cc1 (stereo unspecified)	0.3
COC(=O)c1ccc(-c2nc3cc(Cl)c(N)cc3s2)cc1	i
COc1ccc(CCn2c(Br)nc3c2c(=O)[nH]c(=O)n3C)cc1	0.1
Cc1cc(=O)oc2cc(OCC(=O)OCC(=O)N3CCc4ccccc43)ccc12	i
CCCN1Cc2cccc(C(=O)Nc3cc(OC)cc(OC)c3)c2C1=O	1.0
O=C(CN1CCCC1=O)Nc1ccccc1	2.3
CC(Oc1ccc(Cl)cc1)C(=O)OCC(=O)Nc1ncc(Cl)cc1Cl (stereo unspecified)	0.9
CC1CCCCC1NC(=O)CCCc1nc2ccccc2c(=O)[nH]1 (stereo unspecified)	i
O=C(c1cccs1)N1CCN(Cc2ccc3c(c2)OCO3)CC1	0.0
Cc1ccc(-c2noc(CSc3nnnn3-c3ccccc3)n2)cc1	i
O=C(NCc1cccs1)c1nc2c(nnn2Cc2ccc(F)cc2)c(=O)[nH]1	i
NC(=O)C1(N2CCCCC2)CCN(C(=O)c2ccc(-n3cnnn3)cc2)CC1	0.0

Compounds above that contain a thiophene ring, fused or not, in the order listed:
SMILES	H5N1 antiviral
O=C(CCS(=O)(=O)c1ccc(Br)s1)NCc1ccc2c(c1)OCO2	i
CC1CCCC(C)N1C(=O)CSc1nnc(-c2cccs2)o1 (stereo unspecified)	1.2
O=C(N/N=C/c1ccc([N+](=O)[O-])s1)c1ccccc1Br	0.4
Cc1nc2cc(-c3ccsc3-n3c(C)ccc3C)[nH]n2c(=O)c1Cl	0.9
O=C(NCc1cccs1)c1cc2ccccc2o1	i
Cc1sc(CO)c(Sc2ccccc2)c1C(=O)O	0.4
CCCCn1cnc2sc3c(c2c1=N)CCCC3	0.4
CN1CCc2c(sc3c2C(=O)NC(c2ccccn2)N3)C1 (stereo unspecified)	0.2
O=C(C1=C(O)C(=O)N(c2ncccn2)C1c1cccs1)c1ccco1 (stereo unspecified)	0.6
Cc1cc(C)n(-c2nc(NCC(C)O)c3c4c(sc3n2)COC(C)(C)C4)n1 (stereo unspecified)	1.4
O=C(CCc1nc2ccccc2s1)N1CCN(S(=O)(=O)c2cccs2)CC1	1.1
O=C(c1cccs1)N1CCN(Cc2ccc3c(c2)OCO3)CC1	0.0
O=C(NCc1cccs1)c1nc2c(nnn2Cc2ccc(F)cc2)c(=O)[nH]1	i

Screens as filed in PubChem BioAssay.

A portion of the library; count on the stated rates, not on these rows.
